AF4-AF9 inh – MLL-AF4/AF9 protein interaction inhibition | AlphaScreen, biotin-AF4 peptide binding to FLAG-AF9 | inhibition, % at 10 µM | hit rate 0.47% among 350,000 | AID 651704 | P42568;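 active means every replicate reaching a set inhibition limit, whatever the replicate mean, cut at about 25% in these data; inconclusive means mean inhibition reaches that limit but some replicates miss it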;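 further: 0% = plate neutral control median and 100% = total signal loss; the record names both 10 and 1 µM as test concentration; the first replicate is given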
Target sequence (P42568 whole entry, looked up): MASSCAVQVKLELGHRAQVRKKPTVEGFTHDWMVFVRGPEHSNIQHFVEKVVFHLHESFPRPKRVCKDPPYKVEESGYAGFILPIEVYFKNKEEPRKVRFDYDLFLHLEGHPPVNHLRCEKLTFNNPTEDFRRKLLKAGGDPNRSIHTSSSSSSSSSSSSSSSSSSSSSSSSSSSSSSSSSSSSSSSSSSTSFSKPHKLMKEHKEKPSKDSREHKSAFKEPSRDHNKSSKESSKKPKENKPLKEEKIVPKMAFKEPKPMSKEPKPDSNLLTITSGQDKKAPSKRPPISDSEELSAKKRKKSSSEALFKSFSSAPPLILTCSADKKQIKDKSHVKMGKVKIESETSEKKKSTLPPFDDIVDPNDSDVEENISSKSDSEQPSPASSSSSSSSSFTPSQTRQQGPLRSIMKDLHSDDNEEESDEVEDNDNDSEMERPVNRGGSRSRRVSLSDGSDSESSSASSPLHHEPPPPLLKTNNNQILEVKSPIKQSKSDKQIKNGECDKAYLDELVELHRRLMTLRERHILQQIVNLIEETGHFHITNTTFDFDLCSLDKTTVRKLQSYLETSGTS
Beta apoptosis – blocks beta cell apoptosis. INS-1E cytokine-induced death, ATP luminescence, 48 h; percent of positive-control rescue, neutral wells zero. protection from apoptosis, % (concentration not given with the values). hit rate 0.8% among 300,000. AID 435005;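 active means all replicates at 75% or more, or half of them and the mean; inconclusive means half reach 75% but not the mean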;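 further: 0% = cytokine-treated negative control wells and 100% = positive control rescue; higher means more ATP so stronger rescue from cytokine killing; wells of about 40 µL received 100 nL stock; the first replicate is given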
UCH37 inh – human UCH37 deubiquitinating enzyme inhibition. Q9Y5K5. purified proteasome/UCH37, Ub-AMC cleavage fluorescence. inhibition, % (concentration not given with the values). hit rate 0.33% among 330,000;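 active means mean of two replicates above 20%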;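 further: 0% = compound-free wells with enzyme and 100% = wells lacking proteasome; stock transfer was 100 nL into about 20 µL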
Target sequence (Q9Y5K5 whole entry, looked up): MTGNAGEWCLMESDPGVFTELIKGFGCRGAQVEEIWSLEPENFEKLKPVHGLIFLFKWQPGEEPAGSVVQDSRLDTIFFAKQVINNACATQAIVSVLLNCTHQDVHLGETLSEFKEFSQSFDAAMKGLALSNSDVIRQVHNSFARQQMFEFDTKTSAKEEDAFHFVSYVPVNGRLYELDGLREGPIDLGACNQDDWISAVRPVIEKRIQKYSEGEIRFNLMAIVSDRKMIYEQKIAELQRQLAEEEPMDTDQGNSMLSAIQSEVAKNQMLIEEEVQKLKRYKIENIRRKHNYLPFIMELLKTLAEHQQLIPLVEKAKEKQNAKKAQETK
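Material: human UCH37 enzyme supplied as purified proteasome complex. Measure: % inhibition of Ub-AMC cleavage fluorescence. Medium: pH 7.4 Tris-HCl (50 mM) with ovalbumin, ATP-MgCl2, DTT. Times: 30 min preincubation with enzyme, 25 min cleavage at room temperature. Detection: AMC fluorescence intensity at 355/460 nm.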
FGF22 binding – shifts melting point of recombinant human FGF22; hit rate 1.5% among 340,000; recombinant FGF22 thermal shift, SYPRO orange fluorescence; percent of sucrose octasulfate shift, DMSO zero; calls only at 9.99 µM; AID 651658; Q9HCT0;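 active means melting point raised past a set limit in the mean and every replicate; inconclusive means no clear call; three in four hits are not shown here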
Target sequence (Q9HCT0 whole entry, looked up): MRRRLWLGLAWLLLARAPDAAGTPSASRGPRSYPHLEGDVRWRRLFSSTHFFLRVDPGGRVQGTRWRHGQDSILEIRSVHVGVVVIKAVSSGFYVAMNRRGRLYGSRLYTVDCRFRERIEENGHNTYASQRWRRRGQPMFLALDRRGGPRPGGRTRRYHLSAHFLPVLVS
Ecoli rRNA inh – inhibitors of bacterial rRNA selective over humanized ribosomes | hit rate 1.6% among 350,000 | AID 720706 | E. coli WT GFP vs humanized-ribosome RFP mutants, fluorescence, 24 h; stronger effect = lower value; DMSO median 0, no signal -100 | GFP signal change (wild-type ribosome), % (no concentration beside the values);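 active means significant combined selectivity score with lowered wild-type GFP, culture density cut under 30%, mutant RFP and density less affected; inactive means any of these conditions unmet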; further: one replicate is shown; some compounds called inactive have numbers as strong as hits
E coli growth – E. coli growth inhibition; Escherichia coli growth, OD600, 23 h; stronger effect = lower value; OD600 absorbance (concentration not given with the values); hit rate 0.21% among 330,000;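 active means OD600 absorbance below the run mean of sample wells minus 3.6 SD, in any replicate, cut at about 0.56 in these data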;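 further: stock transfer was 300 nL into about 60 µL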
T cruzi inh – T. cruzi replication inhibition. T. cruzi beta-gal in NIH3T3, luminescence, 90 h. inhibition, % (test concentration not listed). AID 1885. hit rate 1.4% among 300,000;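 active means mean inhibition across valid replicates above about 55%, limit read from the data; inconclusive means mean below that limit but half or more replicates reach it; inactive means mean below it, under half of replicates reach it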;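 further: signal also drops with host cell toxicity which is not excluded here; 0% = plate median of DMSO wells and 100% = zero luminescence signal; higher percent means less beta-gal luminescence so fewer parasites; stock transfer was 50 nL into about 50 µL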
Bfl-1 A1 inh – inhibitors of the anti-apoptotic protein A1, read as caspase activation; MEF A1-2A-BIM cells, Caspase-Glo 3/7 luminescence, 3 h; percent of clofoctol response, vehicle zero; caspase activation, % (concentration not given with the values); hit rate 0.066% among 330,000; AID 2462;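 active means over half of replicate activation scores above 10%, or exactly half above 10 with the replicate mean above 10; inconclusive means replicate mean below 10 yet half the replicates above 10; inactive means over half of replicates below 10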;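 further: wells of about 30 µL received 50 nL stock; many hits fall short of the cut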
Ecoli rRNA inh OD600 – second read-out of Ecoli rRNA inh, no call of its own (marks repeat the call); OD600 change, %; measured here: OD600 growth;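 optical density of the mix in the first replicate; 0 = DMSO median and -100 = no signal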
Ecoli rRNA inh RFP – second read-out of Ecoli rRNA inh, no call of its own (marks repeat the call); RFP signal change, %; measured here: RFP humanized mutant strains;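 first replicate; 0 = DMSO median and -100 = no signal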
Starred values were filed as active, the others as inactive; i = inactive; ? = inconclusive; · = not tested or not shown. This is a subset (hit frequency here may not be typical).

Every second line gives: AF4-AF9 inh	Beta apoptosis	UCH37 inh	FGF22 binding	Ecoli rRNA inh	Ecoli rRNA inh OD600	Ecoli rRNA inh RFP	E coli growth	T cruzi inh	Bfl-1 A1 inh
CCOC(=O)N1CCN(CC(=O)Nc2ccc(F)c(F)c2F)CC1
→ -1.8	1	1.8	·	·	·	·	0.7	-10	0.3
O=C(CN1C(=O)/C(=C/c2cccc(Br)c2)SC1=S)NC1=NCCS1
→ 0.2	-3	4.0	i	14	5	6.9	0.7	6	-0.2
Cc1nc(C(=O)Nc2cccc(Cl)c2Cl)nn1-c1cc(OC(C)C)c(Cl)cc1Cl
→ ·	-8	2.9	·	·	·	·	0.69	29	-0.6
CC(C)CCOc1ccc(-c2c(=O)n(OCc3ccc([N+](=O)[O-])cc3)c3ccccc3[n+]2[O-])cc1
→ ·	10	-12	·	·	·	·	0.71	32	-1.0
Cc1ccc(S(=O)(=O)N(Cc2ccccc2)c2ccccc2C(=O)N2CCCCC2)cc1
→ -2.0	10	5.6	i	-17	-31	2.4	0.67	36	-0.1
CCOc1ccc(N2C=Nc3ccc(OCC)cc3C2)cc1
→ -1.0	·	6.2	i	-9	-15	1.6	0.59	24	0.2
Cc1ccc2[nH]c3c(=O)n(CCCN4CCOCC4)cnc3c2c1
→ ·	·	-23	·	·	·	·	0.71	-9	0.2
O=C1OC(Nc2ccc3c(c2)OCO3)c2ccccc21 (centres undefined)
→ -1.1	-31	2.8	·	·	·	·	0.71	3	0.8
CCN(CC(=O)NCc1cccs1)C(=O)c1ccc(S(=O)(=O)Nc2ccccc2C)cc1
→ -13	-1	2.1	i	-4	-5	-2.1	0.65	0	-0.6
Cc1nc(/C(N)=N/OC(=O)c2cccc(Cl)c2)c(C(F)(F)F)o1
→ 0.3	·	-0.5	i	-3	-3	0.4	0.68	2	0.2
Cc1ccc(S(=O)(=O)N2CCN(S(=O)(=O)N3CCCCC3)CC2)c(C)c1
→ 1.7	-5	6.8	i	11	4	1.8	0.72	34	0.2
COc1ccccc1C(=O)NCCn1cc(SCC(=O)NCC2CCCO2)c2ccccc21 (centres undefined)
→ -1.1	-2	1.2	i	-14	-13	2.0	0.67	-2	-0.7
OC1COC(OCC2OC(OCc3ccccc3)C(O)C(O)C2O)C(O)C1O (centres undefined)
→ -0.6	-2	3.1	i	·	·	·	0.77	-15	-0.2
O=C(NCc1ccc2c(c1)OCO2)c1ccc2c(c1)C(=O)N(Cc1cccnc1)C2=O
→ ·	3	1.0	·	·	·	·	0.76	-19	0.7
C/C=C/C(=O)Nc1ccccc1Br
→ 1.1	-2	1.8	i	0	7	-3.9	0.69	-15	0.7
Cn1c(N)c(C(=O)CSc2nnc(NC3CCCCC3)s2)c(=O)n(C)c1=O
→ -9.0	·	8.4	i	8	17	2.0	0.7	·	·
COc1ccc(CCNC(=O)Cn2nc(C(=O)O)c3ccccc3c2=O)cc1OC
→ 0.5	2	1.7	i	12	14	1.5	0.64	-5	-0.7
Cn1c(SSc2ccc(-c3cccnc3)n2C)ccc1-c1cccnc1
→ 16	·	10	i	1	0	-0.9	0.68	·	·
Oc1c(Br)cc(Br)c(/C=N/n2c(-c3ccccc3)n[nH]c2=S)c1Br
→ -6.9	-7	·	i	-52	-74	-20	·	-3	0.7
COc1ccc(CCn2nnc(-c3ccc(NC(C)=O)c(Cl)c3)n2)cc1
→ ·	-3	0.5	·	·	·	·	0.7	11	-0.4
Cc1ccc([C@@H]2C[C@H]3CN(Cc4cccc(Cl)c4)C(=O)[C@]34CCCN24)o1
→ 1.6	-9	2.9	i	12	5	2.3	0.65	13	0.1
Cc1ccc(N2CC(C(=O)N3CCOCC3)CC2=O)cc1C (centres undefined)
→ -1.3	2	-0.2	i	8	7	0.8	0.7	6	-0.3
Cc1ccc2c(Cl)c(C(=O)Nc3nn[nH]n3)sc2c1
→ -1.2	-2	6.4	i	-32	-59	14	0.73	6	-1.4
O=C(Cn1cnc2ccccc2c1=O)N1CCN(c2ccc(F)cc2)CC1
→ 0.4	-5	2.6	i	3	-2	2.9	0.69	-4	0.4
Cc1cc(NC(=O)C(C)Sc2nc(-c3cccs3)nc3ccccc23)no1 (centres undefined)
→ 0.1	·	-75	i	4	11	-1.1	0.73	·	·
COc1ccccc1C1CCCN1Cc1nc(-c2ccc(C)s2)oc1C (centres undefined)
→ 8.1	1	-22	i	8	-4	0.2	0.68	25	0.2
O=C(Nc1ccccc1C(=O)NC1CCCCC1)c1ccccc1
→ -1.4	-1	-6.4	i	5	20	0.1	0.72	15	1.1
Cc1cccc(NC(=O)c2cnc3scc(C)n3c2=O)c1
→ -1.6	·	-11	i	-1	3	-3.3	0.71	-9	-2.7
COc1cc(/C=C(\C#N)C(=O)N2CCc3ccccc32)ccc1O
→ 5.2	7	5.6	i	-33*	-1.1*	14*	0.65	-8	0.9
Cc1cc(SCC(=O)N(CC(C)C)c2c(N)n(CC(C)C)c(=O)[nH]c2=O)nc2ccccc12
→ -0.8	·	3.4	i	9	14	-0.6	0.68	·	·

Copied from the list:
Cc1ccc([C@@H]2C[C@H]3CN(Cc4cccc(Cl)c4)C(=O)[C@]34CCCN24)o1 in E coli growth is entered as 0.65
Cn1c(SSc2ccc(-c3cccnc3)n2C)ccc1-c1cccnc1 in Ecoli rRNA inh RFP is entered as -0.9

(list continues)
Every second line gives: AF4-AF9 inh	Beta apoptosis	UCH37 inh	FGF22 binding	Ecoli rRNA inh	Ecoli rRNA inh OD600	Ecoli rRNA inh RFP	E coli growth	T cruzi inh	Bfl-1 A1 inh
CCC(=O)Nc1ccc(C(=O)OCc2ccccc2)cc1
→ 0.8	-1	2.6	i	-22	-18	7.9	0.69	12	-2.0
CC(CCC(=O)O)C1CC[C@@]2(C)C3C(=O)CC4C(C)(C)C(O)CC[C@]4(C)C3C(=O)C[C@]12C (some centres undefined)
→ 0.2	-1	0.9	i	-22*	-2.9*	3.2*	0.68	5	0.9
COc1cccc(C(=O)/C=C/c2ccc(N3CCCCC3)c([N+](=O)[O-])c2)c1
→ ·	-2	6.9	·	·	·	·	0.75	-1	0.5
CCOC(=O)c1c(-c2ccc(C)o2)csc1NC(=O)COC(=O)c1ccc(NC(N)=O)cc1
→ ·	1	-5.1	·	·	·	·	0.72	-1	-0.4
Cn1c(=O)c2ccccc2n2c(CCl)nnc12
→ 1.1	-11	3.2	i	8	5	-1.8	0.67	-11	0.7
Cc1cc(C(=O)OCC(=O)Nc2cccc(S(N)(=O)=O)c2)c(C)o1
→ 1.3	-1	1.3	i	-2	-4	-3.9	0.71	·	-1.7
Cc1cc(NS(=O)(=O)c2ccc(NC(=O)CSc3nc4ncccc4[nH]3)cc2)nc(C)n1
→ -9.2	-2	-2.3	i	15	8	2.6	0.74	-6	0.1
Cn1cc(/C=C2\SC(=O)N(c3ccc(O)cc3)C2=O)c2ccccc21
→ -30	8	1.0	i	-35*	-16*	-9.5*	0.65	25	-0.4
CNc1c(NS(=O)(=O)c2ccc(F)c(Cl)c2)c(=O)oc2ccccc12
→ 5.2	-19	-14	i	6	8	-1.7	0.69	4	-0.3
c1ccc(CNc2ncnc3nc[nH]c23)nc1
→ 1.4	-4	5.3	i	7	16	-1.4	0.7	-3	0.5
O=C(c1cc(-c2ccccc2Cl)nc2ccccc12)N1CCC1
→ 7.7	-5	1.5	i	7	-1	-2.0	0.65	31	-0.7
C=CCn1c(C)cc(C(=O)COC(=O)CCc2cc(OC)c(OC)c(OC)c2)c1C
→ 11	-4	2.2	i	-19	-34	0.8	0.66	·	0.6
CS(=O)(=O)N1CCN(C(=O)c2cccnc2)CC1
→ -0.9	1	1.2	i	11	10	0.0	0.72	-8	-0.9
c1ccc2c3c([nH]c2c1)C1(CCCCC1)NCC3
→ 3.0	-4	-0.1	i	9	8	9.0	0.73	1	-1.9
O=C(O)CCCCCNC(=O)/C=C/c1ccco1
→ -2.7	-7	3.5	i	28	29	3.0	0.7	0	-0.4
CCOC(=O)c1ccccc1NC(=O)COC(=O)CSCC(=O)Nc1cc(C)on1
→ -31	-4	-1.5	i	4	6	-3.5	0.64	-12	0.5
CCN(CC)C(=O)C(=O)N/N=C/c1ccc(C(=O)OC)cc1
→ 1.0	-12	·	i	5	16	1.0	·	14	0.8
COc1ccc(C2CC(O)(c3ccccc3)Oc3cc(OC)c(OC)c(OC)c32)cc1 (centres undefined)
→ 12	-2	4.3	i	-23	-26	-14	0.73	11	0.5
c1ccc(CCNc2ncnc3scc(C4COc5ccccc5O4)c23)cc1 (centres undefined)
→ ·	-1	0.1	·	·	·	·	0.69	4	-0.2
Cc1ccc(S(=O)(=O)N2CC(=NN=C(N)N)C2)cc1
→ 2.8	-5	5.9	i	7	4	0.7	0.65	-10	0.5
O=C(CSCc1cccc(Cl)c1)NCc1ccc2c(c1)OCO2
→ ·	-4	1.5	·	·	·	·	0.65	3	-1.2
CN1CCC/C1=C1/C(=O)N(c2ccccc2)N=C1NC(=O)Nc1cccc(Cl)c1
→ 4.6	4	3.5	i	-31*	-15*	4.6*	0.65	4	0.2
c1ccc2c(c1)OCCOCCOc1ccccc1OCCOCCO2
→ 0.9	0	0.7	i	14	14	2.7	0.69	3	0.1
CSCCC(NS(=O)(=O)/C=C/c1ccccc1)C(=O)O (centres undefined)
→ -4.5	-4	2.9	i	8	6	-3.2	0.72	-13	-0.4
Cc1ccc(S(=O)(=O)NCC(=O)Nc2cccc([N+](=O)[O-])c2)cc1
→ -1.2	-4	3.7	i	2	4	6.1	0.69	·	0.1
O=C(OCc1nc2ccccc2s1)c1ccccc1O
→ -1.9	1	6.1	i	-29	-28	-7.7	0.65	-12	?
CCC(C(=O)NC(C)(C)C)N(Cc1ccco1)C(=O)CNS(=O)(=O)c1ccc(OC)cc1 (centres undefined)
→ 1.5	-4	2.7	i	2	7	0.0	0.7	15	-0.4
Cc1ccc(NC(=O)COC(=O)c2ccc(Cl)cc2)cc1S(=O)(=O)N(C)C
→ 0.1	-6	1.7	·	-33	-45	-8.3	0.72	-13	-0.2
COC(=O)C(C)Oc1cc(OC(C)C(=O)OC)c2c(-c3ccccc3)cc(=O)oc2c1 (centres undefined)
→ -1.6	2	5.7	i	-24*	-15*	-5.0*	0.69	3	5.3*
COCC(C)NCc1cc(Br)ccc1OC (centres undefined)
→ 1.3	0	2.9	i	17	21	0.2	0.7	9	-0.2
CCCCn1c(=S)[nH]c2cc(S(=O)(=O)N3CCOCC3)ccc21
→ -0.3	3	3.1	i	-2	-1	6.4	0.69	·	0.2
Cc1cc(OCc2ccccc2)ccc1/C(O)=C1/C(=O)C(=O)N(Cc2cccnc2)C1c1ccncc1 (centres undefined)
→ -0.4	·	11	i	-29*	-8.2*	-6.4*	0.7	·	-0.4
C=C(C)CSc1nc(N)cc(=O)[nH]1
→ ·	-8	4.2	·	·	·	·	·	-18	0.3
